Mtb betalactam – beta-lactam sensitization of Mtb H37Rv, H37Rv | M. tuberculosis H37Rv growth with meropenem, percent inhibition; hits of this screen are not shown here | inhibition, % at 25 µM | 330,000 compounds, 0.27% hits;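 active = about 74% or more and at least 40 points above the plate without the antibiotic, then above 30% in a dose series; inconclusive = first-round hits that could not be retested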;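 also: growth measured after seven days incubation then overnight dye step; 0% = bacteria only wells and 100% = bacteria with antibiotic; twin plates without the antibiotic show which effects depend on it; some results filed as inactive read as strong as hits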
Mtb H37Rv – M. tuberculosis H37Rv growth inhibitors, H37Rv strain (AID 1626) | M. tuberculosis H37Rv growth inhibition; higher % means a stronger effect | 220,000 compounds, 0.95% hits | inhibition, % at 10 µM, or IC50 in µM where a hit was titrated;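 active = confirmed in a dose series; inconclusive = inhibition above 80% but not taken into the dose series; inactive = below 80% or under 30% at every dose of the series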;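 also: bacteria incubated seven days before Alamar blue readout; 0% = bacteria only wells and 100% = bacteria with antibiotic wells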
RecA intein inh – Mtb RecA intein splicing inhibitors, primary screen, biochemical, fluorescence, HTS; Protein RecA (Mycobacterium tuberculosis (strain ATCC 25618 / H37Rv)), P9WHJ3; 290,000 compounds, 0.75% hits; cell-free RecA intein splicing; inhibition, %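 (about 9 µM by stock and volumes)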; in the data active = inhibition above about 30%; inconclusive = no clear call, values can overlap the other calls;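 also: 0% = vehicle wells and 100% = reference inhibitor control wells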
Target sequence (P9WHJ3 whole entry, looked up): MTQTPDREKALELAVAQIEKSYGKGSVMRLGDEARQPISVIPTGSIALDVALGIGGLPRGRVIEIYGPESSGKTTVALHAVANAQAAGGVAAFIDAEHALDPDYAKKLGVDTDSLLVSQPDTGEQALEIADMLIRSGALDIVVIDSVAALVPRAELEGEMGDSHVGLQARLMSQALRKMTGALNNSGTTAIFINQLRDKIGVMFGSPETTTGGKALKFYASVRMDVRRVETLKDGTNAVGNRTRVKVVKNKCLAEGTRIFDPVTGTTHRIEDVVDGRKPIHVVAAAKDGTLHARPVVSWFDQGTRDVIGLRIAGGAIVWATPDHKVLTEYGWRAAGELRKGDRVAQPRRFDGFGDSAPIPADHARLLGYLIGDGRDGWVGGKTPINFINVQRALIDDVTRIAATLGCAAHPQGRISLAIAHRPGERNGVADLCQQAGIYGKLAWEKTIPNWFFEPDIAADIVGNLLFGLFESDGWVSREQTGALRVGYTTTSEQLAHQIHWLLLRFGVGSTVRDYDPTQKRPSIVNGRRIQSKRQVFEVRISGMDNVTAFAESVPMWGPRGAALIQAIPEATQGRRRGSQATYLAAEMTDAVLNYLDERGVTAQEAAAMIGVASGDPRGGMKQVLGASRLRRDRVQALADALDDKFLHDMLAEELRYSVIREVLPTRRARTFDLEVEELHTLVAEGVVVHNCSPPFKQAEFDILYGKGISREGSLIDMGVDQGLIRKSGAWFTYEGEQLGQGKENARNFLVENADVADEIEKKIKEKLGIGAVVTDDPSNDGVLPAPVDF
Arbovirus inh – antivirals against arbovirus infection, primary screen, cell-based, full library, 10K replicate subset; AID 1251, 2008; inhibition, % at 10 µM; arbovirus infection cell-based antiviral screen; 200,000 compounds, 0.37% hits;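 active = inhibition from about 30%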;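 also: bluetongue infection of BSR cells; cell survival read as ATP light after 72 h; 0% = infected wells without compound and 100% = uninfected wells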
YopH PTP inh – YopH tyrosine phosphatase inhibitors, primary screen, biochemical, fluorescence Ex485/Em525; YopH tyrosine phosphatase [Yersinia enterocolitica]; inhibition, %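 (about 10 µM by stock and volumes)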; 140,000 compounds, 0.16% hits;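 active = inhibition of 50% or more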;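 also: controls were vehicle for no effect and minimum signal wells for full effect; inactives centre near -20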
Arbovirus inh repeat – second read-out of Arbovirus inh, no call of its own (marks repeat the call); inhibition, %; measured here: 10K subset replicate screen; many hits read low in the repeat;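 first of two repeat runs on a subset; 0% = infected and 100% = uninfected wells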
* marks the source's active call; other numbers are inactive results; ? = inconclusive; . = not tested or not shown. This is a subset. The share of hits here may be higher or lower than overall.

SMILES	Mtb betalactam	Mtb H37Rv	RecA intein inh	Arbovirus inh	YopH PTP inh	others
Cc1cc(Oc2nnnn2-c2ccccc2)ccc1Cl	-14	7%	7.0	2	4
CCS(=O)(=O)N1CCN(c2cccc(C)c2C)CC1	3	5%	3.2	2	-36	Arbovirus inh repeat=1
CC1(c2ccc3ccccc3c2)NC(=O)N(CC(N)=O)C1=O (stereo not given)	2	.	1.7	.	.
COc1ccc(NCc2nnc(-c3ccccc3)o2)cc1	-3	.	-7.1	.	.
CC1=NN(c2ccc(Cl)cc2)C(=O)C1	1	33%	96*	0	.
O=C(Nc1ccon1)c1cc2c(s1)CCCC2	1	6%	4.5	-4	-32
CCn1ncc(/C=N/NC(=O)c2ccc3c(c2)OCO3)c1C	-8	-7%	-2.7	-11	-23
CCOC(=O)N(CC)c1ccc(C(O)(C(=O)OCC)C(F)(F)F)cc1 (stereo not given)	-3	8%	-0.6	5	-12	Arbovirus inh repeat=4
CCCn1c(N)cc(=O)n(C)c1=O	-11	1%	-2.8	4	.
Cc1cccc(NC(=O)Nc2ccc(C)cc2Br)c1	9	-8%	1.1	-8	-26
Nc1nc(SCc2ccccc2Cl)n[nH]1	-4	0%	2.0	9	-2
O=C(/C=C(\c1ccc(Cl)cc1)n1cncn1)c1ccc(Cl)cc1	51	-7%	7.9	8	-11
COCCN(C(=O)c1ccco1)C(C(=O)NC1CCCC1)c1cccs1 (stereo not given)	6	0%	2.0	1	33
CCSc1nc2n(n1)C(c1cccc(F)c1)C1=C(CCCC1=O)N2 (stereo not given)	-7	3%	4.0	-4	-39
C[C@H]1COC2=C1C(=O)C(=O)c1c2ccc2c1CCCC2(C)C	99	-2%	19	-13	.
COc1cc(OC)cc(C(=O)N[C@H](C(=O)OCC(=O)Nc2sccc2C#N)C(C)C)c1	-4	-1%	-2.4	0	.
CSc1ccccc1OCc1cc(C(=O)N2CCSCC2)no1	-2	.	1.5	.	.
O=C(Cc1ccccc1)Oc1cccc(-n2cnnn2)c1	-1	-3%	14	7	.
COc1cscc1C(=O)O	-4	2%	-4.4	.	.
Cn1c(CNc2ccc(O)cc2)nc2ccccc21	2	.	-4.8	.	.
CCn1c(SCC(=O)NCCc2ccccc2)nnc1C(C)C	-4	-3%	-0.8	6	.
CC(NC(=O)c1ccco1)C(=O)N1CCN(c2ccccc2)CC1 (stereo not given)	-19	.	-1.5	.	.
O=C(c1ccc(Cl)cc1)N1C2C=CC(C2)C1(C(F)(F)F)C(F)(F)F (stereo not given)	0	-5%	0.2	4	-25
C=CCOC(=O)C1=C(C)NC(=O)NC1c1ccc(OCC)cc1 (stereo not given)	-4	.	2.2	.	.
CCOC(=O)C1CCCN(C(=O)c2ccc3c(c2)NC(=O)C(N2CCOCC2)S3)C1 (stereo not given)	-8	-4%	1.2	18	-40
COc1ccc(Cl)cc1C(=O)NNC(=S)NC(=O)/C=C/c1ccco1	97	?	1.0	-30	.
COc1ccccc1C1=NC(c2ccc(C)cc2)N=C1C (stereo not given)	6	8%	10	14	.
COc1ccc(C(C)=O)cc1COC(=O)c1cccnc1SC	-3	-6%	4.3	1	.
CCOC(=O)CNC(=O)CSc1nc2cccnc2n1Cc1ccccc1	16	4%	-2.0	-3	-16
CCCCCCOC(=O)CCc1c(C)nc(N)[nH]c1=O	-9	-6%	-3.0	6	-4
C=CCOn1c(C)c(C(C)=O)c2c3no[n+]([O-])c3ccc21	-7	-6%	3.7	16	14
CC(=O)c1cc(CN2CCC(n3nccc3NC(=O)c3ccccc3C)CC2)cs1	-4	.	0.4	.	.
COc1ccccc1CNC(=O)COc1ccc(C)cc1	4	.	-0.8	.	.
CCOc1ccc(C(=O)NCC(=O)NCCCn2nc(C)cc2C)cc1OCC	-11	.	-5.4	.	.
O=C(NCc1ccco1)/C(=C/c1ccco1)NC(=O)c1ccc(Br)o1	-2	-1%	0.9	0	-22
CC(C)(C)C(=O)Nc1ncccc1C(O)c1cccc(C(F)(F)F)c1 (stereo not given)	-15	7%	3.0	4	.
C=CCNC(=O)c1c(CSc2ccccc2)noc1C(=O)NCc1ccccc1	2	4%	.	.	.
O=C(C[n+]1cc(Br)cc2ccccc21)c1ccc(F)cc1	?	.	5.5	.	.
CCNC(=S)N1CCc2cc(OC)c(OC)cc2C1COc1ccccc1OC (stereo not given)	-6	3%	6.0	2	.
Cc1cc(NC(=O)C2CC2)ncc1NC(=O)C12CC3CC(CC(C3)C1)C2	-10	-2%	-0.7	4	-55
CCCCN(Cc1cc2ccccc2[nH]c1=O)S(C)(=O)=O	-11	1%	0.4	12	-32
c1cncc(-c2nc3ccccc3[nH]2)c1	7	-4%	.	16	4
Cc1ccc(S(=O)(=O)N2CCC3(CC2)OCCN3S(=O)(=O)c2c(C)cc(C)cc2C)cc1	-3	.	4.7	.	.
CN(C)c1ccc(CN(C(=O)c2ccccc2Br)C2CCS(=O)(=O)C2)cc1 (stereo not given)	-1	.	0.0	.	.
CC(C)CNP(=S)(c1ccccc1)C(C)(C)C (stereo not given)	-2	-9%	1.5	.	.
O=C1C2CCCN2C(c2ccccc2)N1c1nccs1 (stereo not given)	-12	-4%	-1.4	0	-14
CC(C)CC1Nc2ncnc(N3CCN(c4ccccn4)CC3)c2N(Cc2ccc(Br)cc2)C1=O (stereo not given)	6	.	18	.	.
CC(C)CCNC(=O)C1CC(=O)N(C2CCCC2)C1 (stereo not given)	2	-8%	-1.9	7	4
O=C(Oc1ccc2[nH]cc(CCN3C(=O)c4ccccc4C3=O)c2c1)c1ccco1	10	-2%	3.7	-1	-10
OCCNCCOc1ccccc1F	-10	2%	7.3	4	-31
CC(=O)NS(=O)(=O)c1ccc(NC(=O)CC(C)c2ccccc2)cc1 (stereo not given)	-7	-1%	4.6	2	.
N#Cc1ccsc1NC(=O)CN1CCN(c2ccccc2O)CC1	2	3%	-3.0	3	-23
CCOc1nc(NCCN2CCOCC2)nc(Nc2ccc(C)cc2)n1	10	-1%	2.7	6	-13
S=c1nc(Cc2ccc(Cl)cc2)[nH]c2ccccc12	-2	2%	.	23	.
COc1ccc(-c2[nH]ncc2CN2CCC(C(=O)c3ccc(F)cc3)CC2)cc1	-1	1%	1.3	.	.
Cc1cc2c(cc1S(=O)(=O)N(C)Cc1ccccc1)n(C)c(=O)c(=O)n2C	-9	.	2.1	.	.
CCn1c(SCC(=O)NCc2ccco2)nnc1-c1ccncc1	-1	-2%	1.5	0	.
N#C/C(=C(/O)c1cccc(F)c1)c1nc2ccccc2s1	-2	13%	0.0	.	.
Cc1ccc(NC(=O)CNC(=O)c2ccccc2F)cc1Cl	8	-9%	0.7	-2	-39
O=C(c1ccc(F)cc1)c1cnc(Nc2ccccc2)s1	-3	0%	2.4	-2	.

(next part)
SMILES	Mtb betalactam	Mtb H37Rv	RecA intein inh	Arbovirus inh	YopH PTP inh	others
O=C(NCCCN1CCCC1)c1ccc(CS(=O)(=O)c2ccc(Cl)cc2)o1	4	.	-6.9	.	.
C[C@H](NC(=O)c1nc[nH]c1C(=O)NC1CCN(C(=O)OC(C)(C)C)CC1)C(=O)OCc1ccccc1	14	-13%	-0.3	2	.
COc1ccc(S(=O)(=O)N(Cc2cccnc2)Cc2cc3ccccc3[nH]c2=O)cc1	-5	.	0.9	.	.
O=c1n(Cc2ccccc2Cl)nc2n1-c1ccccc1SC2	-8	-2%	6.0	.	.
CC1CCN(c2nc(Cl)nc(Nc3ccc([N+](=O)[O-])cc3)n2)CC1	100	?	10	-34	-31
O=C(COc1ccc([N+](=O)[O-])cc1)Nn1cnnc1	-4	5%	2.2	0	.
COc1ccc(C)cc1N(CC(=O)NCCN1CCOCC1)S(=O)(=O)c1ccccc1	-3	.	-0.3	.	.
O=C(Nc1ccc2nsnc2c1)NC1CCCCC1	100	.	-34	-4	-6
CCOc1cc(/C=N/NC(=O)C(=O)N/N=C/c2ccc(O)c(OCC)c2)ccc1O	-1	.	-7.7	.	.
Cc1cc([N+](=O)[O-])nn1CC(=O)Nc1cnc2ccccc2c1	-8	-2%	-1.6	4	.
Cc1ccc(-c2csc(N3CCC(NS(=O)(=O)c4ccc5c(c4)OCCO5)CC3)n2)cc1	3	1%	3.6	25	-32
O=C(CN1C(=O)NC2(CCCCCC2)C1=O)N1CCC(Cc2ccccc2)CC1	-2	-5%	3.1	-1	-13

The last 7 records of the section before lead into the next:
SMILES	Mtb betalactam	Mtb H37Rv	RecA intein inh	Arbovirus inh	YopH PTP inh	others
O=C(COc1ccc([N+](=O)[O-])cc1)Nn1cnnc1	-4	5%	2.2	0	.
COc1ccc(C)cc1N(CC(=O)NCCN1CCOCC1)S(=O)(=O)c1ccccc1	-3	.	-0.3	.	.
O=C(Nc1ccc2nsnc2c1)NC1CCCCC1	100	.	-34	-4	-6
CCOc1cc(/C=N/NC(=O)C(=O)N/N=C/c2ccc(O)c(OCC)c2)ccc1O	-1	.	-7.7	.	.
Cc1cc([N+](=O)[O-])nn1CC(=O)Nc1cnc2ccccc2c1	-8	-2%	-1.6	4	.
Cc1ccc(-c2csc(N3CCC(NS(=O)(=O)c4ccc5c(c4)OCCO5)CC3)n2)cc1	3	1%	3.6	25	-32
O=C(CN1C(=O)NC2(CCCCCC2)C1=O)N1CCC(Cc2ccccc2)CC1	-2	-5%	3.1	-1	-13
CC(C)(C)n1ncc2c(=O)n(CC(=O)N3CCCc4ccccc43)cnc21	-3	7%	1.4	0	-48
CC1(C)Cc2ccccc2-c2nc(NCCCO)[nH]c(=O)c21	-3	-6%	0.7	.	.
c1cncc(C(c2nnnn2C2CCCCC2)N2CCN3CCCC3C2)c1 (stereo not given)	-9	-2%	.	7	-40
O=S(=O)(NCCN1CCOCC1)c1ccc(F)c(Cl)c1	-15	.	-2.0	.	.
O=C(c1ccc2c(c1)OCO2)C1CCCN(Cc2cn[nH]c2-c2cccc(F)c2)C1 (stereo not given)	4	-4%	3.9	-11	.
CC1(C)CC(NC(=O)c2cccc(F)c2)CC(C)(C)N1	6	.	-3.1	.	.
Cc1cccc(N(C(=O)CNC(=O)c2ccco2)C(C(=O)NC2CCCC2)c2cccnc2)c1 (stereo not given)	-3	4%	1.4	8	-33
O=C(c1cc(COc2ccc(F)cc2F)on1)N1CCCC(c2ccccc2)C1 (stereo not given)	16	0%	7.2	-10	.

3 entries drawn at random from those above:
SMILES	Mtb betalactam	Mtb H37Rv	RecA intein inh	Arbovirus inh	YopH PTP inh	others
CC(C)(C)n1ncc2c(=O)n(CC(=O)N3CCCc4ccccc43)cnc21	-3	7%	1.4	0	-48
O=C(c1cc(COc2ccc(F)cc2F)on1)N1CCCC(c2ccccc2)C1 (stereo not given)	16	0%	7.2	-10	.
CC1(C)Cc2ccccc2-c2nc(NCCCO)[nH]c(=O)c21	-3	-6%	0.7	.	.

3 entries from above, arranged by formula weight, descending:
SMILES	Mtb betalactam	Mtb H37Rv	RecA intein inh	Arbovirus inh	YopH PTP inh	others
CC(C)(C)n1ncc2c(=O)n(CC(=O)N3CCCc4ccccc43)cnc21	-3	7%	1.4	0	-48
CC1(C)Cc2ccccc2-c2nc(NCCCO)[nH]c(=O)c21	-3	-6%	0.7	.	.
CC1(C)CC(NC(=O)c2cccc(F)c2)CC(C)(C)N1	6	.	-3.1	.	.

Assay outcomes as filed in PubChem.
